Screens (PubChem BioAssay)
Cruzain inh Det = qHTS Assay for Promiscuous and Specific Inhibitors of Cruzain (with detergent); Cruzipain (Trypanosoma cruzi), P25779; AID 1478, 2009; hit rate 0.43% among 200,000; purified cruzain, Z-FR-AMC fluorescence, 0.01% Triton; Potency, µM, without a hit: max response, negative = inhibition, most hits filed as inhibitors; active means well fitted curve in the direction sought with a large enough effect; inconclusive means small, poorly fitted or top-dose-only effect, or another doubt; inactive means no such curve, though single readings can be large; an effect the other way counts as inactive or inconclusive;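 further: plate controls were neutral wells for no effect and buffer without enzyme for full effect; nearly all actives have a fitted effect of over 40% in size; top concentration of the series not given in the record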
Target sequence (P25779 123-467 limits assumed): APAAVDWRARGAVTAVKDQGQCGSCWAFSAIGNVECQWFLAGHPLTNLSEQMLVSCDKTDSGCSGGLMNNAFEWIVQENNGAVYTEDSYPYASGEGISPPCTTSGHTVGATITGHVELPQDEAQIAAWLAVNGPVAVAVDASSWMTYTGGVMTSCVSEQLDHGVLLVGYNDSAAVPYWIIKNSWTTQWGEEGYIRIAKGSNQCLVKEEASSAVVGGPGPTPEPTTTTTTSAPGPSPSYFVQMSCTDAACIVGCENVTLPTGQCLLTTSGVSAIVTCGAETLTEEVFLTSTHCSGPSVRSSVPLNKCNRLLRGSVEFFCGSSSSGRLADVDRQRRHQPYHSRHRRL
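Purified cruzain (1.5 nM final) was preincubated with compounds for 15 min at room temperature in 100 mM sodium acetate pH 5.5, 5 mM DTT, 0.01% Triton X-100. Reaction started with 2 uM Z-FR-AMC; AMC fluorescence change over 60 s gave activity.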
LASV entry inh = qHTS for Inhibitors of binding or entry into cells for Lassa Virus; hit rate 1.2% among 300,000; Potency, µM (highest dose often 37.9 µM), without a hit: at the top dose activity change, negative = inhibition, hits mostly inhibitors; Lassa virus pseudotype entry inhibition, cell reporter; control for the full effect not named in the record; AID 540256, 2011; active means well fitted inhibition curve with a large enough effect; inconclusive means small, poorly fitted or top-dose-only effect, or effect the other way; inactive means flat fitted curve, though single readings scatter; tested in HEK293 cells; further: on the % scale 0 is the no-effect control and ±100 the full control effect; nearly all actives have a fitted effect of over 50% in size; luciferase read-out
StopGo reporter = High Throughput Screening for Foot and Mouth Disease Virus Antivirals. Potency, µM (titrated, usually from 57.9 µM), for inactives: at the top dose signal change, negative = less light. hit rate 1.2% among 410,000. human cells with a luciferase reporter of 2A StopGo recoding; control for the full effect not named in the record; active = well fitted falling curve with a large enough effect; inconclusive = small, poorly fitted or top-dose-only effect; inactive = no such curve, though single readings can be large or run the other way; tested in HEK293T cells; further: on the % scale 0 is the no-effect control and ±100 the full control effect; nearly all actives have a fitted effect of over 45% in size; luciferase light after 4 h
NS1 function inh = qHTS Assay for Inhibitors of Influenza NS1 Protein Function; S. cerevisiae slowed by influenza A NS1, growth recovery by OD600; Potency, µM (top dose mostly 46.1 µM), inactives show top-dose activity, positive = more growth; hit rate 0.4% among 270,000; AID 2326, 2010; further: actives are rising curves; nearly all actives have a fitted effect of over 50% in size
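Growth recovery, yeast-based: influenza A NS1 expressed in S. cerevisiae causes slow growth, and suppressors are detected by OD600. The parent strain without NS1 is used as positive control.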
SARS PLpro yeast = qHTS of Yeast-based Assay for SARS-CoV PLP. S. cerevisiae expressing SARS-CoV PLpro, growth rescue; control for the full effect not named in the record. Potency, µM (series often up to 32.9 µM), without a hit: at the top dose activity, positive = growth rescue. hit rate 0.19% among 330,000. AID 485353, 2010; further: 0% is about no effect; nearly all actives have a fitted effect of over 55% in size; growth read by luminescence after 48 h
RE007 growth inh = qHTS Assay for Inhibitors of the HIV-1 protein Vpr | S. pombe RE007 Vpr strain, BacTiter-Glo ATP luminescence, 24 h; control for the full effect not named in the record | hit rate 0.21% among 360,000 | Potency, µM (highest dose often 92.2 µM), for inactives: at the top dose activity change, negative = less growth | AID 651644, 2012; active = well fitted falling curve with a large enough effect; inconclusive = small, poorly fitted or top-dose-only effect; inactive = no such curve, though single readings can be large or run the other way;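 further: on the % scale 0 is the no-effect control and ±100 the full control effect; nearly all actives have a fitted effect of over 50% in size; the assay follows cell death caused by Vpr and the record does not say whether a fall means rescue or toxicity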
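Fission yeast RE007 carrying one integrated HIV-1 vpr copy, seeded at OD 0.01 in PMG+AL medium with 23 nL pinned compound. Grown 24 h at 30 degrees; viability read by BacTiter-Glo luminescence after 5 min.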
Cruzain noTriton = qHTS Assay for Promiscuous and Specific Inhibitors of Cruzain (without detergent); Potency, µM, for inactives: max response, negative = inhibition, hits mostly inhibitors; purified cruzain, Z-FR-AMC fluorescence, no detergent; hit rate 2.3% among 200,000; active means well fitted curve in the direction sought with a large enough effect; inconclusive means small, poorly fitted or top-dose-only effect, or another doubt; inactive means no such curve, though single readings can be large; an effect the other way counts as inactive or inconclusive;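 further: plate controls were enzyme without inhibitor for no effect and buffer without enzyme for full effect; nearly all actives have a fitted effect of over 40% in size; top concentration of the series not given in the record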
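Purified cruzain at 1.5 nM, pre-incubated 15 min with compound at room temperature in 100 mM sodium acetate pH 5.5, 5 mM DTT, 0.00005% Triton X-100. Reaction started with 2 uM Z-FR-AMC; AMC fluorescence increase over 60 s gives rate.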
Marburg entry inh = qHTS for inhibitors of binding or entry into cells for Marburg Virus. Marburg virus pseudotyped entry inhibition, cell reporter; control for the full effect not named in the record; about a third of the inactives were read at about 46 µM. Potency, µM (top dose mostly 37.8 µM), for the others: at the top dose activity change, negative = inhibition, hits mostly inhibitors. hit rate 1.8% among 300,000; active = well fitted inhibition curve with a large enough effect; inconclusive = small, poorly fitted or top-dose-only effect, or effect the other way; inactive = flat fitted curve, though single readings scatter; tested in HEK293 cells; about a fifth of its hits are not listed in these tables; further: on the % scale 0 is the no-effect control and ±100 the full control effect; luciferase read-out
Numbers without * were called inactive; ? = inconclusive; . = not tested or not shown; & = joins results of further samples; [ ] = another dose, or the depositor's remark. Unless noted, the call rests on the fitted dose curve; in most records, active means well fitted rising curve with a large enough effect; inconclusive means small, poorly fitted or top-dose-only effect; inactive means no such curve, though single readings can be large or run the other way. Potency means the concentration at half of the fitted maximal effect.

compound	SARS PLpro yeast	NS1 function inh	Cruzain inh Det	LASV entry inh	Marburg entry inh	RE007 growth inh	StopGo reporter	Cruzain noTriton
Cc1ccc(C(=O)CSc2nnc(N)s2)c(C)c1	-1%	3%	.	?	9%	-1%	62%[activator]	.
COc1cc(-c2noc(-c3ccco3)n2)cc(OC)c1OC	7%	-11%	-3.3%	-6%	-41%	-12%	14%	-4%
O=C(O)C1Cc2ccccc2CN1C(=O)c1ccccc1Cl (stereo not given)	.	2%	-7.2%	21%	7%	5%	-4%	0%
O=C(NCCc1ccc(Cl)cc1)c1ccc(CS(=O)(=O)Cc2ccc(F)cc2)o1	.	.	-1.0%	19%[46.1 µM]	.	.	?	-7%
CC1CCCN(C(=O)CSc2nc3ncccc3[nH]2)C1 (stereo not given)	0%	3%	.	-7%	14%[46.1 µM]	-5%	37%[activator]	.
COc1ccc(CC2(CO)CCN(Cc3cnn(-c4ccc(F)cc4)c3)CC2)cc1	0%	-3%	.	.	.	-4%	?	.
O=C(NCCc1ccccc1)c1ccc(CSc2nc3ccncc3n2Cc2ccccc2)cc1	.	.	-8.9%	?	-4%[46.1 µM]	.	-9%	12%
COc1ccc2cc(C(=O)NCc3ccccc3)[nH]c2c1	-1%	0%	.	12%[46.1 µM]	?	-3%	25%	.
N#C/C(=C\c1ccc(F)c(Cl)c1)S(=O)(=O)c1ccccn1	1%	4%	.	9%[46.1 µM]	?	6%	0%	.
O=C(c1cc2c(cc1Br)OCCCO2)N1CCCCC1	22%	13%	-0.2%	5%	-23%	26%	0%	-4%
NS(=O)(=O)c1ccc(NC(=O)CSc2nnc(Cc3cccs3)n2-c2ccccc2)cc1	3%	-41%	6.8%	1%	-18%&-18%	-10%	-5%	-7%
Cc1ccccc1C(=O)N1CCN(c2ccc(NC(=O)c3ccc([N+](=O)[O-])o3)cc2)CC1	-2%	-8%	.	-30%[46.1 µM]	?	1%	?	.
CS(=O)(=O)N1CC(C(=O)O)Oc2ccc(CC(=O)O)cc21 (stereo not given)	-1%	.	.	0%	?	17%	-9%	.
CN1CCN(CCCNC(=O)c2cn(C3CCCCC3)c(=O)c3c2c2ccccc2n3C)CC1	7%	0%	-5.0%	19%	-6%&-6%	-4%	-2%	-6%
Cc1ccccc1CC(=O)N1CCN(C(=O)C2CCCO2)CC1 (stereo not given)	-4%	2%	.	-10%[46.1 µM]	15%[46.1 µM]	6%	-2%	.
COc1ccccc1NC(=O)CCC(=O)OCc1ccc([N+](=O)[O-])cc1	1%	-4%	.	.	.	-9%	9%	.
COc1ccccc1-c1nc2c3ccccc3nc(=S)n2[nH]1	1%	1%	.	.	.	-5%	-19%	.
CC(C)OC(=O)c1cc2ccccc2oc1=O	?	-8%	-5.1%	?	27%	-7%	0%	-10%
Cc1nn(C)c(NC(=O)c2ccccc2Cl)c1Br	2%	0%	.	.	-6%	-3%	-15%	.
CN(C(=O)COC(=O)c1ccccc1Nc1ccccc1)C1CCS(=O)(=O)C1 (stereo not given)	-4%	-12%	-3.4%	5%	0%	-8%	-13%	?
CC(C)c1ccccc1OCC(=O)Nc1cc(S(=O)(=O)N2CCOCC2)ccc1N1CCCC1	.	.	.	?	?	12%	-28%	.
CCOC(=O)CCN(Cc1sccc1C)S(=O)(=O)c1ccc(F)cc1	-14%	-51%	-1.9%	8%	-3%	6%	.	3%
Cc1ccc2nc(C)cc(N/N=C/c3ccccc3O)c2c1	-4%	4%	.	.	.	0%	26%	.
O=C(N/N=C/c1coc2ccccc2c1=O)c1cn(-c2ccccc2)nc1-c1ccccc1	15%	13%	-4.8%	-1%	17%	-8%	-24%	?
Cn1nc(-c2ccccc2)cc1NS(=O)(=O)c1ccccc1	0%	3%	.	.	.	20%	-7%	.
CC(=O)Nc1c(O)[nH]c2ccccc12	1%	0%	6.4%	6%	24%	-1%	.	-19%
CC(=O)Nc1ccc(/C=N/NC(=O)c2cc3ccccc3nc2C)cc1	17%	?	-15%	?	7%	-12%	-6%	-1%
O=S(=O)(c1ccc(Br)cc1)c1nc(-c2ccco2)oc1NCCCn1ccnc1	0%	.	.	-1%	-1%	7%	40%[activator]	.
OCCN(Cc1ccccc1)CC1CC=CCC1 (stereo not given)	3%	-1%	-5.2%	0%	?	-8%	.	-1%
CCCCCC(O)c1cccc(OCc2ccc3ccccc3n2)c1 (stereo not given)	-47%	-50%&-40%	-8.6%&0.9%&-7.7%	?	-6%&-31%&-31%&-31%&-8%&-31%&-31%&-31%	8%	-27%	?
CCCN(CC(=O)Nc1ccccc1C)C(=O)c1nn(CC)c(=O)c2ccccc12	-2%	.	.	-5%	-7%	-22%	-11%	.
Cc1ccc(NS(=O)(=O)c2ccc3c(c2)CCN3C(=O)C2CC2)c(C)c1	.	.	-4.6%	-27%[46.1 µM]	-5%[46.1 µM]	.	-10%	-3%
N#C/C(=C\c1ccc(Cl)cc1)c1nc2ccccc2[nH]1	.	.	-4.7%	18%[46.1 µM]	.	.	60%[activator]	2%
COC(=O)c1ccc(NC(=S)NC(=O)c2c(-c3ccccc3)noc2C)cc1	0%	-2%	.	5%	3%[46.1 µM]	2%	-11%	.
Cc1cc(C)cc(Nc2cc(C(=O)NCc3ccccc3)c3ccccc3n2)c1	.	.	-11%	-1%[46.1 µM]	?	.	12%	4%
Cc1cc(C)c(NC(=O)Cn2c([N+](=O)[O-])cnc2C)c(C)c1	-1%	?	.	.	.	2%	-11%	.
O=C(CS(=O)(=O)c1ccccc1)N1CCN(c2ccccc2)CC1	-1%	.	.	19%	21%	11%	24%	.
COc1ccc(-c2nnnn2C)cc1S(=O)(=O)Nc1ccc(C)cc1C	1%	1%	.	-28%	-4%[46.1 µM]	-11%	26%	.
CCCCN(C)CCC(=O)Nc1ccc(F)c(F)c1	2%	20%	-2.2%	13%	5%	0%	-22%	-6%
C#CCN[C@H](C)Cc1ccccc1	.	0%	4.5%	0%	-16%&5%&5%&5%	8%[18.4 µM]	-18%	5%
O=C(CSC1=NS(=O)(=O)c2cc(Cl)ccc2N1)Nc1ccccc1F	2%	.	.	12%	?	3%	8%	.
CC(=O)OCC12COC3c4ccccc4OC(C)(CC1C)C3C2C (stereo not given)	-9%	.	.	-7%	7%[46.1 µM]	29%	?	.
Oc1ccc(Cn2ccnc2)c2cccnc12	2%	2%	.	?	?	3%	11%	.
Cc1ccc2nc(Cl)c(C#N)cc2c1	0%	5%	.	21%	?	?	0%	.
COc1ccc(N/C(=N/c2nc(C)cc(C)n2)NC(=O)Nc2ccc(Cl)c(Cl)c2)c(OC)c1	3%	-1%	-0.3%	?	2%	1%	-7%	?
CC1CC(OCC(O)C[N+]2(C)CCOCC2)CC(C)(C)C1 (stereo not given)	0%	.	.	4%	-11%	3%	-5%	.
COc1ccc(C(=O)OCC(=O)Nc2ccc(OC)c(S(=O)(=O)N3CCCCC3)c2)cc1[N+](=O)[O-]	-1%	.	.	?	4%[46.1 µM]	34%	-16%	.
O=C(COc1ccc2c3c(c(=O)oc2c1)CCCC3)NCCCn1ccnc1	-7%	-3%	.	.	.	-8%	-6%	.
O=S(=O)(c1ccc2ccccc2c1)N1CCN(C2CCN(Cc3ccccc3)CC2)CC1	1%	3%	2.3%	?	?	-6%	?	10%
Cc1ccc(OCC(=O)NNC(=O)c2ccc3c(=O)n4c(nc3c2)CCC4)cc1	3%	.	.	8%	11%	6%	13%	.
CCC(C(=O)OC)n1cnc2c(cnn2-c2ccc(F)cc2)c1=O (stereo not given)	.	.	-3.4%	3%[46.1 µM]	8%[46.1 µM]	.	-22%	6%
CC(C)CNC(=O)c1cc(-c2ccc3c(c2)OCO3)on1	2%	-3%	.	.	.	11%	42%[activator]	.
CNC(=O)COc1coc(CN2CCN(c3ccccc3OC)CC2)cc1=O	0%	-14%	.	9%[46.1 µM]	22%[46.1 µM]	13%	-9%	.
O=C(/C=C/c1c(Cl)nc2ccccn12)N1CCCCC1	-1%	.	.	2%	-5%[46.1 µM]	-17%	43%[activator]	.
CN1CCc2c(cc(O)c(O)c2Cl)C(c2cccc(Cl)c2)C1 (stereo not given)	.	17%	-2.0%	.	?	.	.	?
Cc1c(C)[n+](=O)c(-c2cccs2)c(C)n1[O-]	-13%	-5%	-0.6%	-6%	?	-14%	4%	6%
O=S(=O)(Nc1ccc2c(c1)OCCO2)c1cnc[nH]1	1%	9%	5.6%	-1%	-5%[46.1 µM]	6%	-15%	2%
CCOc1cc(/C=C/c2ccc3cccc([N+](=O)[O-])c3n2)cc(Cl)c1O	3%	7%	-1.7%	-14%	-20%	17%	-29%	-28%
COC(=O)C1(C(F)(F)F)N=C(C(F)(F)F)Nc2ccc(Cl)cc21 (stereo not given)	28%	-15%	-2.6%	5%	10%	0%	-16%	2%
COc1ccc(S(=O)(=O)n2nc(OC(=O)c3cccs3)cc2N)cc1	-1%	-13%	?	-2%	13%	5%	14%	13µM*
NC(=S)N=Nc1c(O)[nH]c2cc(F)c(F)cc12	0%	10%	14µM*	-13%	4%	10%	-15%	10µM*
COc1ccc(C(CC(=O)NC(C)c2ccc(-c3ccccc3)cc2)NC(C)=O)cc1 (stereo not given)	5%	-6%	.	4%	?	9%	12%	.
COc1ccc(C(=O)Nc2ccc(CN3CCS(=O)(=O)CC3)cc2)cc1	0%	3%	.	.	.	12%	2%	.

Rows were taken by chance; overall some 4.8% were active at least once.
